Screens: PubChem BioAssay, several laboratories
MLL AF4-AF9 inh: inhibitors of AF4 peptide binding to AF9, primary screen, biochemical, AlphaScreen, biotin-AF4 peptide, FLAG-AF9, single point; Protein AF-9 (Homo sapiens), P42568; inhibition, % at 10 µM; actives 0.47% (n = 350,000);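 active = every replicate reaching a set inhibition limit, whatever the replicate mean, cut at about 25% in these data; inconclusive = mean inhibition reaches that limit but some replicates miss it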;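 note: 0% = plate neutral control median and 100% = total signal loss; the record names both 10 and 1 µM as test concentration; the first replicate is given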
Target sequence (P42568 whole entry, looked up): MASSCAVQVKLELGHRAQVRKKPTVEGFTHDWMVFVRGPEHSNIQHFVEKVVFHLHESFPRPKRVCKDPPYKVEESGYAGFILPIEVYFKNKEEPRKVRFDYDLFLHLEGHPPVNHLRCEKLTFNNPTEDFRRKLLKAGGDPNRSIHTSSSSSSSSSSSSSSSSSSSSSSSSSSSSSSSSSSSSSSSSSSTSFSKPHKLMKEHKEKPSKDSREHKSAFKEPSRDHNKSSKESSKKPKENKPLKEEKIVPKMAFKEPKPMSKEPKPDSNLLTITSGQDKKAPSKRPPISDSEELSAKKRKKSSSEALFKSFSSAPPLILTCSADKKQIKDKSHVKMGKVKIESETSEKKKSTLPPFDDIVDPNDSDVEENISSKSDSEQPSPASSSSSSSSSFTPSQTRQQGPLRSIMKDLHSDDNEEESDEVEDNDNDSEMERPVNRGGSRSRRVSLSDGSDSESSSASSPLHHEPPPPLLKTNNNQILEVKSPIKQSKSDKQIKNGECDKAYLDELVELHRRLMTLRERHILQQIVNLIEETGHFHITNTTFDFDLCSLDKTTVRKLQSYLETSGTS
RanGTP-Impb inh: inhibitors of RanGTP-importin-beta interaction, primary screen, biochemical, FRET, CFP-Ran, YFP-importin-beta, homogeneous; Ran GTPase (GTP-bound) - importin-beta complex; actives 1.1% (n = 300,000); inhibition, % (no concentration beside the values); AID 2216, 2009; cell-free CFP-Ran/YFP-importin-beta FRET ratio;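 active = most replicates above 15%; inconclusive = exactly half above 15%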;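 note: 0% = DMSO wells and 100% = Ran loaded with GDP instead of GTP; wells of about 40 µL received 100 nL stock; the first replicate is given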
Bfl-1 A1 inh: caspase 3/7 activation in MEF A1-2A-BIM cells, primary screen, A1 inhibitor project, cell-based, luminescence, HTS. AID 2462, 2010. Caspase-Glo 3/7 luminescence, 3 h; percent of clofoctol response, vehicle zero. caspase activation, % (test concentration not listed). actives 0.066% (n = 330,000);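 active = over half of replicate activation scores above 10%, or exactly half above 10 with the replicate mean above 10; inconclusive = replicate mean below 10 yet half the replicates above 10; inactive = over half of replicates below 10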;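 note: wells of about 30 µL received 50 nL stock; many hits fall short of the cut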
Calb FLC: C. albicans growth inhibition with fluconazole, primary screen, CaCi-2 strain, Alamar Blue fluorescence. C. albicans CaCi-2 (fluconazole-resistant clinical isolate) + fluconazole, 48 h. growth inhibition, % (no concentration beside the values). actives 0.57% (n = 300,000). AID 1979, 2009;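 active = most replicates above 75%; inconclusive = exactly half above 75%; inactive = most below 75%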;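 note: all wells also contain fluconazole at 8 µg/ml as a sub-toxic cotreatment; 0% = median of DMSO wells and 100% = median of geldanamycin control wells; wells of about 8 µL received 7.5 nL stock; the first replicate is given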
LANA-H2B inh: blockers of LANA interaction with H2A/H2B – biochemical, FP readout, HTS, primary screen | actives 0.6% (n = 320,000) | inhibition, % (test concentration not listed) | AID 2629, 2010 | cell-free LANA-H2A/H2B peptide, fluorescence polarization; in the data active = inhibition mostly above about 10%, no sharp cut-off; inactive = mostly below about 6.7%;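 note: stock transfer was 7.5 nL into about 10 µL; 0% = median of vehicle wells and 100% = median of positive control wells; one replicate is shown; the record names a cut of 25% in any replicate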
T cruzi inh: inhibitors of intracellular T. cruzi growth, primary screen, luminescence, NIH3T3 host cells; T. cruzi beta-gal in NIH3T3, 90 h; inhibition, % (concentration not given with the values); actives 1.4% (n = 300,000); AID 1885, 2009;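 active = mean inhibition across valid replicates above about 55%, limit read from the data; inconclusive = mean below that limit but half or more replicates reach it; inactive = mean below it, under half of replicates reach it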;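 note: signal also drops with host cell toxicity which is not excluded here; 0% = plate median of DMSO wells and 100% = zero luminescence signal; higher percent means less beta-gal luminescence so fewer parasites; stock transfer was 50 nL into about 50 µL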
Vif A3G: inhibitors of Vif binding to APOBEC3G peptide, primary screen, biochemical, TR-FRET, GST-Vif 1-94, biotin-A3G peptide, dose response retest (AID 1117319) | TR-FRET GST-Vif / biotin-A3G peptide binding; higher % means a stronger effect; test concentration not given here; strong numbers were not always called active | one-dose inhibition, %; IC50 in µM for titrated hits | actives 0.57% (n = 260,000);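 active = above the screen mean plus three standard deviations and confirmed in dose response; inconclusive = results disagree or hit not tested in dose response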;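 note: Vif residues 1-94 fused to GST binding biotinylated APOBEC3G peptide 110-148; 0% = full assay without inhibitor and 100% = GST in place of GST-Vif; retest series ran down from 100 µM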
Beta cell apopt: inhibitors of cytokine-induced beta cell apoptosis, primary screen, luminescence. INS-1E cytokine-induced death, ATP luminescence, 48 h; percent of positive-control rescue, neutral wells zero. actives 0.8% (n = 300,000). protection from apoptosis, % (concentration not given with the values);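 active = all replicates at 75% or more, or half of them and the mean; inconclusive = half reach 75% but not the mean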;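 note: 0% = cytokine-treated negative control wells and 100% = positive control rescue; higher means more ATP so stronger rescue from cytokine killing; wells of about 40 µL received 100 nL stock; the first replicate is given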
Starred values were filed as active, the others as inactive; i = inactive; ? = inconclusive; . = not tested or not shown.

SMILES	MLL AF4-AF9 inh	RanGTP-Impb inh	Bfl-1 A1 inh	Calb FLC	LANA-H2B inh	T cruzi inh	Vif A3G	Beta cell apopt
Cc1ccc(C(=O)N2CC(=O)Nc3ccc(F)cc3C2c2ccccc2)cc1[N+](=O)[O-] (stereo not given)	-2.7	2.9	0.1	34.6	-5.7	5.8	.	-4.2
COc1ccc(CC(=O)Nc2cc3oc4ccccc4c3cc2OC)cc1	-0.4	-2.5	-2.3	-21.8	1.5	32.2	-4.1%	7.2
COC(=O)CN1C(=O)COc2ccc(S(=O)(=O)N3CCCC3)cc21	4.5	-0.4	-1.4	6.9	-4.8	-9.0	.	2.9
COC(=O)c1c(C)[nH]c(C(=O)C(C)OC(=O)c2c(C)noc2C)c1C (stereo not given)	1.3	.	-0.6	.	0.2	.	11.1%	2.0
O=C(C1COc2ccccc2O1)N1CCN(c2ccccc2O)CC1 (stereo not given)	2.0	.	1.8	.	-24.4	.	4.5%	-8.0
CC(C)C[C@H]1CN=C(Nc2ccccc2)N1CCCC1CCCCC1	2.7	4.9	0.3	76.6*	-4.4	40.5	.	48.8
CCCCCCNC(=O)c1c(O)c2cccc3c2n(c1=O)CCC3	.	-3.6	0.6	2.3	-5.5	27.1	3.1%	-1.4
CCCCn1[nH]c(-c2ccccc2)cc1=O	.	0.6	0.7	0.3	0.1	2.0	1.1%	.
COc1cccc(OCc2cc(C(=O)N(C)C3CCOCC3)no2)c1	1.6	-3.3	0.5	3.4	-1.5	-1.3	.	0.3
COc1ccc(CCN2CC(C#N)=C3c4cc(OC)c(OC)cc4CCN3C2)cc1OC	0.0	6.5	0.3	16.6	2.7	-7.3	2.4%	8.7
CCn1nc(C)c(NC(=O)/C=C/c2cnn(C)c2)c1C	.	2.4	1.3	1.0	2.1	-5.9	2.8%	3.1
Cc1nc2ccccc2c(=O)n1/N=C/c1cn(-c2ccccc2)nc1-c1cccs1	.	-2.7	-0.6	-1.9	-4.7	23.9	4.8%	3.3
O=C(NCc1ccco1)C1CN(S(=O)(=O)c2ccccc2)CCN1S(=O)(=O)c1ccccc1 (stereo not given)	.	5.6	-0.2	2.7	3.0	4.1	-1.0%	-8.2
Cc1nc(N2CCOCC2)c2c(C)c(C(=O)Nc3ccccc3Cl)sc2n1	-26.9	-2.9	0.5	-2.8	-5.0	9.4	-8.7%	8.5
CCCOC(=O)C1[C@H]2C(=O)N(CCCOC)C[C@]23C=C[C@H]1O3 (stereo not given in full)	5.9	7.6	-0.4	-13.2	3.0	.	1.8%	-2.4
COc1ccc(NC(=S)NNC(=O)c2ccc(S(=O)(=O)N3CCOCC3)cc2)cc1	1.2	-0.2	?	18.7	-2.7	4.4	8.4%	-1.5
O=C1/C(=C/c2ccccn2)SC(=S)N1c1cccc(O)c1	4.9	6.8	1.4	40.7	3.6	-18.2	1.7%	1.2
COc1cc(C(=O)Nc2ccc(Cl)c(C(F)(F)F)c2)cc(OC)c1OC	.	4.5	-0.4	13.6	-3.5	8.7	.	68.4
CC(C)Oc1ccccc1-c1nc(SCC(=O)O)n[nH]1	.	-0.6	0.1	-0.8	-0.4	2.9	11.1%	-2.4
CCOc1ccc(-n2c(=O)c3sccc3n(Cc3ccc(C)cc3)c2=O)cc1	-2.1	-0.5	1.0	-5.3	-2.8	1.0	-14.0%	3.6
O=c1c2sc(-c3ccccc3)cc2nc2n1CCCCC2	-1.4	5.4	-3.5	-27.6	6.0	21.6	-7.0%	-2.1
Fc1ccc(NC(=S)NCCc2ccc(Cl)cc2)cc1	3.8	-4.3	1.0	-10.4	-15.6	-6.4	-8.1%	0.6
Cc1nn(C)cc1C(C(=O)NC1CCCCC1)N(C(=O)Cn1nnc2ccccc21)c1ccc(F)cc1 (stereo not given)	.	2.4	0.4	16.9	0.3	-13.6	-1.5%	-7.1
C=C(C)CN(CC)c1nc(N)c2c(N)nc3c(c2c1C#N)CC(=O)N3C12CC3CC(CC(C3)C1)C2	.	6.5	-1.4	7.2	-1.2	56.9*	4.0%	55.9
Cn1ncc(Cl)c1C(=O)Nc1ccc2c(c1)CCC2	-1.0	.	-3.1	.	3.3	-0.1	.	-10.2
Cc1cccc2cc(C#N)c(SCC(=O)N3CCC(C)CC3)nc12	.	2.1	-0.1	10.9	2.7	14.5	-38.6%	10.6
CN1CCN(CCC2Oc3cc([N+](=O)[O-])ccc3NC2=O)CC1 (stereo not given)	0.3	0.6	0.4	-5.7	-1.8	8.6	.	-9.6
Cc1cc(C)n2nc(SCC(=O)NC(=O)c3ccccc3Cl)nc2n1	-2.2	.	0.4	.	1.1	.	11.4%	-3.3
C1=CN2CCC1C(c1ccccc1)C2 (stereo not given)	.	-2.9	?	-0.7	2.4	-1.7	7.7%	3.9
Nc1nonc1-n1nnc(C(=O)N/N=C/c2ccc(OCc3ccccc3)cc2)c1CN1CCCCC1	0.4	2.3	-0.2	-4.5	-3.1	-5.8	.	8.5
CC(C)(C)OC(=O)N1CCC(CNC(=O)c2ccc(F)cc2)CC1	-0.1	3.1	-1.3	-4.3	10.6	-4.0	2.8%	-6.3
Cc1ccc(S(=O)(=O)CCC(=O)OCC(=O)NC(N)=O)cc1	-9.3	-1.6	0.5	-2.1	4.7	-7.1	25.5%	-13.7
Cc1n[nH]c(=S)n(NC(=O)/C=C/C(=O)Nn2c(=S)[nH]nc(C)c2=O)c1=O	-5.8	0.8	.	-7.3	.	12.1	2.38µM*	.
CCOC(=O)C1(Cc2cccc(F)c2)CCN(C(=O)Cc2cccnc2)CC1	0.8	?	0.6	-6.2	-3.5	-5.9	-2.0%	-1.4
COC(=O)c1nc(-n2nc(C)cc2C)ccc1Cl	.	3.3	.	-7.5	.	-15.2	14.7%	.
O=C(NC(=S)Nc1cc(Cl)ccc1N1CCOCC1)c1ccc(-c2cccc(Cl)c2)o1	.	-0.2	0.4	-8.5	-1.8	0.0	?	-5.6
CCOC(=O)c1ccc(Nc2c(CC)c(C)nc3ncnn23)cc1	.	2.1	0.6	3.3	1.8	2.6	12.8%	-2.2
Cc1cc(NC(=O)CSCc2nc(-c3cccc(F)c3)oc2C)no1	1.5	0.6	-1.4	7.5	-1.6	-6.0	3.3%	.
CCN(CC)C(=O)CCC(=O)Nc1ccc(C(=O)OC)cc1	.	-3.4	-0.4	-3.9	-3.9	-2.0	4.2%	-8.4
CCOc1ccccc1NC(=O)CN1C(=O)C(=O)N(Cc2ccco2)C1=O	-0.3	0.6	0.3	12.4	4.6	-9.3	-3.7%	-2.4
COc1cccc(CC2(CO)CCCN(S(=O)(=O)N(C)C)C2)c1 (stereo not given)	-0.3	-0.1	-0.2	1.5	0.1	2.4	-0.3%	-6.3
O=C(Cn1cc(C(=O)C2CC2)c2ccccc21)NC1CCCC1	.	2.1	-0.3	21.3	3.9	-7.9	1.5%	-6.1
COc1ccc(-c2[nH]c3ccccc3c2SCCN)cc1	9.5	-5.0	0.5	-8.2	-0.7	39.9	71.7%	7.1
CN(C)CCCNC(=O)c1cc(C(=O)c2ccc(F)cc2)c[nH]1	2.2	4.8	-0.5	-22.1	i	21.4	0.2%	0.1
O=C(c1ccc(Br)o1)N1CCN(Cc2ccccc2Cl)CC1	3.0	1.6	0.1	-7.4	0.3	-22.9	.	.
COc1ccc(NC(C)=O)cc1S(=O)(=O)Nc1ccc(C(=O)N2CCCC2)cc1	1.6	?	-0.3	-0.6	0.1	-11.1	22.7%	-4.5
Cc1ccc(NC(=O)c2ccc(S(=O)(=O)N3CCCC3)cc2)cc1	.	-0.8	0.8	-12.3	5.6	-0.5	.	1.0
CCOC(=O)C(C)Sc1nc2ccccc2c(=O)n1CC1CCCCC1 (stereo not given)	.	3.7	1.9	5.9	-1.9	16.0	0.7%	1.4
COc1cc(CN2CCNC(=O)C2CC(=O)N(Cc2nccn2C)C(C)C)cc(OC)c1 (stereo not given)	7.2	0.3	0.1	0.7	0.9	-8.1	28.3µM*	-6.1
CCc1nnc(NC(=O)CCC(=O)NC2CCCc3ccccc32)s1 (stereo not given)	9.9	2.0	0.6	2.2	-1.9	-3.0	-3.8%	-1.9
COc1ccc(-c2csc(NC(=S)NC(=O)/C=C/c3ccccc3)n2)cc1Br	-2.0	-0.7	1.7	-1.5	-6.7	-27.2	-9.2%	-6.0
CC(=O)N1CCOc2ccc(S(=O)(=O)NCc3ccccc3Cl)cc21	2.0	-3.3	-1.0	-8.6	-3.5	-4.0	.	-9.2
CCCCOc1ccc(C(=O)Nc2cccc(C)n2)cc1	.	5.1	-0.2	-3.5	1.8	17.3	-1.3%	-6.9
CC(/C=C1\SC(=S)N(NC(=O)c2ccc(O)cc2)C1=O)=C\c1ccccc1	-7.1	-1.9	-2.5	-12.6	-3.4	-4.8	12.2%	5.6
CCCN(CCC)S(=O)(=O)c1ccc(C(=O)Nc2nnc(CSC)o2)cc1	.	-0.2	2.0	-1.0	3.8	2.7	9.1%	6.2
CCN(c1ccccc1)S(=O)(=O)c1ccc(C(=O)Nc2nnc(-c3ccco3)o2)cc1	-5.5	1.1	0.8	?	-6.1	13.9	-10.1%	1.1
CCOc1nc(OCC)c2cnn(C)c2n1	-0.4	-2.7	0.0	-1.3	3.6	2.8	.	-2.6
COCCNC(C(=O)Nc1ccc([N+](=O)[O-])cc1Br)c1ccccc1 (stereo not given)	.	2.2	0.0	?	-7.9	18.4	-2.1%	4.5
Cc1c(C(=O)CN2CCN(c3ccccc3)CC2)c2ccccc2n1C	5.0	8.9	1.9	-19.5	-3.4	21.3	0.5%	-3.8
CC1(C)CC(=O)c2cc(C(=O)N3CCN(CCO)CC3)c(=O)n(-c3ccc(Cl)cc3)c2C1	.	-2.3	1.6	-14.2	1.1	-3.1	-5.6%	0.4

The list continues:
SMILES	MLL AF4-AF9 inh	RanGTP-Impb inh	Bfl-1 A1 inh	Calb FLC	LANA-H2B inh	T cruzi inh	Vif A3G	Beta cell apopt
O=C(NCCc1ccccc1F)[C@@H]1CSC2c3ccccc3C(=O)N21 (stereo not given in full)	.	5.1	-0.7	5.7	1.6	-0.9	2.3%	0.3
O=C(O)COCCN1CCN([C@H](c2ccccc2)c2ccc(Cl)cc2)CC1	0.9	0.4	0.6	.	4.4	20.0	-7.0%	-1.4
CCC(=O)N1CCN=C1SCc1ccccc1	-1.3	-0.4	1.1	-1.2	2.0	-9.1	3.6%	-2.3
Cc1cccc(OCCC(=O)Nc2ccc(F)c(F)c2)c1	-0.9	-0.3	-0.4	17.3	1.8	5.8	-1.4%	-1.3

A different layout for part of the listing above:
Value order – MLL AF4-AF9 inh, RanGTP-Impb inh, Bfl-1 A1 inh, Calb FLC, LANA-H2B inh, T cruzi inh, Vif A3G, Beta cell apopt
CCC(=O)N1CCN=C1SCc1ccccc1
    -1.3, -0.4, 1.1, -1.2, 2.0, -9.1, 3.6%, -2.3
O=C(NCCc1ccccc1F)[C@@H]1CSC2c3ccccc3C(=O)N21 (stereo not given in full)
    ., 5.1, -0.7, 5.7, 1.6, -0.9, 2.3%, 0.3
